VACV mCherry inh = vaccinia inhibition (mCherry reporter); Potency, µM (highest dose often 36.5 µM), for inactives: at the top dose activity change, negative = inhibition, actives largely listed as inhibitors; Vaccinia virus mCherry reporter infection, fluorescence; about a quarter of the inactives have no number; hit rate 0.63% among 310,000; active = well fitted inhibition curve with a large enough effect; inconclusive = small, poorly fitted or top-dose-only effect; inactive = no such curve, though single readings can be large or run the other way; tested in A549 cells; also: nearly all actives have a fitted effect of over 35% in size; inactives centre near -10
VACV Venus inh = inhibitors of vaccinia virus (Venus reporter) | Vaccinia virus Venus reporter expression, fluorescence | Potency, µM (series often up to 36.5 µM), for inactives: at the highest dose activity change, negative = inhibition, usual class: inhibitors | hit rate 0.46% among 330,000; active means well fitted inhibition curve with a large enough effect; inconclusive means small, poorly fitted or top-dose-only effect; inactive means no such curve, though single readings can be large or run the other way; tested in A549 cells; also: nearly all actives have a fitted effect of over 30% in size; inactives centre near -10
* = called active by the depositor; i = inactive; ? = inconclusive; . = not tested or not shown; & = joins results of further samples; [ ] = remark or other dose. % is scaled to controls: 0 for no effect and ±100 for the full control effect; potency is read from the fitted curve at half-maximal effect.

Compound,VACV mCherry inh,VACV Venus inh
CCN1CCN(C(=O)C(N)Cc2ccccc2)CC1 (stereo not given),i,-5.4%
COc1ccc(-c2nn3c(-c4cccc(C)c4)nnc3s2)cc1OC,-6.4%,-14.1%
CCOC(=O)N1CCN(C(=O)NC2CCCCC2)CC1,-13.7%,-15.4%
COc1ccc(OC)c(C(=O)NC(CC(N)=O)c2ccc(NCCN3CCCCC3)c([N+](=O)[O-])c2)c1 (stereo not given),-9.4%,-8.0%
CCS(=O)(=O)N1Cc2ccccc2CC1C(=O)OCC(=O)N(C(C)C)C(C)C (stereo not given),i,-10.3%
Cc1nc(N2CCCCC2)c2c(-c3cccs3)csc2n1,-17.1%,-9.4%
O=C(NCCO)c1ccccc1O,-3.8%,2.1%
C=CCN1[C@@H](Cc2ccccc2)COc2cc(N3CCSCC3)ccc2S1(=O)=O,i,4.5%
CN(C)C(C(=O)Nc1cc(Cl)cc(Cl)c1)c1ccccc1 (stereo not given),3.6%,3.6%
CCCNC(=O)[C@H]1O[C@@H]1C(=O)N[C@H](C(=O)N1CCC[C@H]1C(=O)OC)[C@@H](C)CC,-22.1%[60.7 µM],-10.3%[60.7 µM]
O=S(=O)(NCc1cccnc1)c1ccc2ccccc2c1,-4.9%,6.8%
Cc1cccc(N(CC(=O)NC2CCCCC2)C(=O)CCCC(=O)Nc2ccccn2)c1C,-14.3%,-8.8%
CCc1cccc(CC)c1NC(=O)COn1nnc2ccc(C(F)(F)F)cc21,-6.7%,-11.6%
Fc1cccc(Cc2c(-c3ccccc3)nc3ccc(Cl)cn23)c1,0.8%,-1.6%
Cc1nnc(SCC(=O)OC2CC(C)CCC2C(C)C)[nH]c1=O (stereo not given),3.6%,-0.1%
CCOC(=O)c1sc(NC(=O)CSc2nc(O)c(Cc3ccccc3)c(=O)[nH]2)nc1C,-8.6%,-13.3%
Cc1ccc(C(=O)NCc2cccs2)cc1S(=O)(=O)N1CCCCC1,i,-6.3%
O=C(NCc1cc(C(F)(F)F)cc(C(F)(F)F)c1)C1CC(c2ccc(C(F)(F)F)cc2)=NO1 (stereo not given),-0.4%,-5.6%
CN(CC(=O)Nc1ccc(F)cc1)C(=O)COC(=O)COc1ccc(C#N)cc1,-6.4%,-6.4%
COc1ccc(NC(=O)Nc2cccc(C(=O)N3CCOCC3)c2)cc1OC,.,-24.2%
COC(=O)c1ccc2cc(OC)cc([N+](=O)[O-])c2n1,-15.8%,-10.3%
COc1ccc(C(=O)CSc2nc(C)cc(=O)[nH]2)cc1,-7.5%,-9.8%
N#CC1(C#N)C(c2ccccc2)OC23CCCCC2C1(C#N)C(=N)O3 (stereo not given),2.6%,22.5%
C=C1CC[C@@H]2[C@](C)(CO)[C@H](O)CC[C@@]2(C)[C@@H]1C/C=C1/C(=O)OC[C@H]1O,?,?
Cc1sc2nc(SCC(=O)NCc3ccco3)[nH]c(=O)c2c1C,-8.6%,-6.3%
CCCCCCc1c(C)c2ccc(OCC(=O)N[C@@H](Cc3ccccc3)C(=O)O)cc2oc1=O,-5.5%,-7.8%
CCOC(=O)Cc1csc(NC(=O)CCN2C(=O)c3ccccc3C2=O)n1,-16.6%,-4.6%
Oc1ccc(Br)cc1/C=N/N1CCN(Cc2ccccc2)CC1,.,-8.6%
O=C1c2cccnc2C(O)N1Cc1cccs1 (stereo not given),-2.0%,-3.6%
Cc1cccc2sc(NC(=O)[C@H](C)N3C(=O)C4CC=CCC4C3=O)nc12 (stereo not given in full),-5.5%,-3.4%
Cc1cc2c(c(C)nn2-c2ccccc2)c(=O)o1,i,-16.3%
Cc1ccc(NC(=O)COC(=O)c2ccccc2F)cc1S(=O)(=O)N1CCCCC1,-18.1%,-12.8%
O=C(CN1CCc2ccccc2C1)Nc1ccccc1F,-13.5%,-6.7%
COc1ccc(NC2CCCN(C(=O)COc3ccc(C(C)=O)cc3)C2)cc1 (stereo not given),?,-12.7%
C[C@H](O)[C@@H]1CN2CCc3c([nH]c4ccccc34)[C@@H]2C[C@@H]1N(C)C(=O)NC1CCCCC1,-24.9%,-24.3%
Cc1cc(Oc2ccc(C(C)(C)C)cc2)nc(N2CCOCC2)n1,.,-12.8%
O=C(c1cc(=O)c2ccccc2o1)N1CCN(c2ccccc2)CC1,i,-20.7%
CC[C@]12c3[nH]c4cc(CCC(=O)N(C)C)ccc4c3CCN1C(=O)[C@@H](CC(=O)NC/C=C(\C)CCC=C(C)C)C[C@@H]2C(=O)N1CCN(C(=O)C2CC2)CC1,?,-29.7%
CN(C)c1ccc2c(c1)Sc1cc(N(C)C)ccc1N2C(=O)c1ccccc1,?,15.0%
Cc1ccc(-n2nc(CO)c(C(=O)NC(C)CCCc3ccccc3)n2)cc1C (stereo not given),5.7%,0.8%
COCc1nn2cc(-c3ccc(C)cc3)nc2s1,-11.8%,-5.5%
CC(=O)c1cccc(NC(=O)COC(=O)[C@@H](NC(=O)OCc2ccccc2)C(C)C)c1,i,-12.9%
COc1ccccc1C(=O)Nc1ccc2c(c1)nc(CCNC(=O)c1ccccc1)n2C,?,?
COc1ccc(NC(=O)c2c(N)cnn2C)cc1,-7.2%,-18.2%
Cc1ccc(C(=O)CSc2nc3c([nH]2)c(=O)n(C)c(=O)n3C)cc1,i,-7.4%
Cc1cc(Cc2ccc(N)c(C)c2)ccc1N,?,-5.3%
CCOC1(OCC)N=C(N)C2(C#N)C(c3ccc(NC(C)=O)cc3)C12C#N (stereo not given),i,-6.7%
Cn1cnc2c1c(=O)n(Cc1ccccc1C#N)c(=O)n2C,i,-13.9%

In another format: entries from further up
C=C1CC[C@@H]2[C@](C)(CO)[C@H](O)CC[C@@]2(C)[C@@H]1C/C=C1/C(=O)OC[C@H]1O
- VACV mCherry inh = ?
- VACV Venus inh = ?
Cc1cc(Oc2ccc(C(C)(C)C)cc2)nc(N2CCOCC2)n1
- VACV mCherry inh = .
- VACV Venus inh = -12.8%
O=C(NCc1cc(C(F)(F)F)cc(C(F)(F)F)c1)C1CC(c2ccc(C(F)(F)F)cc2)=NO1 (stereo not given)
- VACV mCherry inh = -0.4%
- VACV Venus inh = -5.6%

Further compounds.
Compound,VACV mCherry inh,VACV Venus inh
c1ccc(CN2CCN(C3CCCSc4ccccc43)CC2)cc1 (stereo not given),i,-10.7%
Cc1ccc(-c2nn(-c3ccccc3)cc2/C=N/NC(=O)c2ccc3c(c2)OCO3)cc1,-19.8%,-19.4%
Cc1cc(Br)ccc1NC(=O)c1cnc(N2CCN(c3ccccn3)CC2)c2ccccc12,i,-7.6%
Cc1ccc(C)c(C(C)NC(=O)c2ccc(Br)o2)c1 (stereo not given),-7.8%,-18.9%
COc1ccccc1/C=C/C=C1N=C(/C=C/c2ccc(Cl)cc2)OC/1=O,-7.4%,-8.0%
Cc1cccc(NC(=O)c2cc(=O)n(Cc3ccccc3)c(=O)[nH]2)c1,i,-6.5%
CCCCOc1ccc(C(=O)NCC(=O)N2CCN(C/C=C/c3ccccc3)CC2)cc1,-29.5%,?
CC(C)(C)c1[nH]c2ccccc2c1/C=N/O,.,-24.4%
COc1ccc(CCNC(=O)CCCCn2c(=O)c3ccccc3n(Cc3ccccc3Cl)c2=O)cc1OC,?,?
Cc1ccc(Cn2cccc(C(=O)Nc3ccc4c(c3)OCCO4)c2=O)cc1,-28.8%,?
COC(=O)CC1C(C)(C)C(OC(C)=O)[C@@]2(O)C=C3C4CC(=O)OC(c5ccoc5)[C@]4(C)CCC3[C@@]1(C)C2=O (stereo not given in full),-11.2%,-4.1%
COc1ccccc1/C=C/C(=O)Nc1cccc(S(=O)(=O)NC2=NCCCCC2)c1,i,-12.6%
Cc1ccccc1OCCC(=O)OCC(=O)Nc1cc(S(=O)(=O)N2CCOCC2)ccc1Cl,-23.9%,-15.0%
O=C(Nc1nnc([C@@H]2C[C@H](O)[C@@H](CO)O2)s1)c1cccc2ccccc12,10.9%,8.7%
CCn1nc(NS(=O)(=O)c2ccccc2)c2cc3ccccc3nc21,-4.6%,-1.5%
Cc1ccccc1Nc1cc(C(=O)NCC2CCCO2)c2ccccc2n1 (stereo not given),5.9%,7.4%
CCc1c(N)nc(N)nc1Nc1ccccc1C,-25.8%,-27.8%
O=C(Nc1ccc(C(=O)N2CCOCC2)cc1)c1ccccc1[N+](=O)[O-],i,-15.2%
COc1ccccc1-c1nc(C#N)c(N2CCN(C(c3ccccc3)c3ccccc3)CC2)o1,.,-3.4%
CN(C)CCN(Cc1ccccc1)c1nccc(N(C)C)c1C#N,i,-8.3%
O=C1Cc2ccccc2Sc2cc(OCCCN3CCCCC3)ccc21,-27.9%,-16.2%
N#Cc1ccc(-c2ccco2)nc1SCC(=O)c1ccc(Cl)cc1,-19.2%,-9.4%
COc1ccc(OC)c(CCNC(=O)c2c(C)oc3ncn(C)c(=O)c23)c1,-20.5%,-12.7%
CC(C)(C)OC(=O)N(CCc1ccccc1)Cc1ccccc1OCc1ccc(NC(=O)C2CCC2)cc1,?,7.7%
O=C(CSc1nnc(CNc2ccc(F)cc2)n1CC1CCCO1)Nc1ccccc1 (stereo not given),.,-12.6%
COCCNC(=O)C1CCCN(C(=O)COCc2ccccc2)CC1 (stereo not given),2.7%,-2.1%
Nc1nonc1-n1nnc(C(=O)N/N=C/c2c(Cl)cccc2Cl)c1CN1CCOCC1,-3.9%,-4.9%
O=C(Nc1nnc(C23CC4CC(CC(C4)C2)C3)s1)c1ccco1,i,-0.5%
Cc1ccc(CN(Cc2cccn2-c2nnc(N3CCCC3=O)s2)C(=O)Nc2cc(C)cc(C)c2)cc1,-7.9%,-1.5%
N#Cc1c(-n2ncnc2-c2ccccc2Cl)sc2c1CCCCC2,-2.1%,9.0%
O=C(CCCn1c(=O)[nH]c2ccccc2c1=O)NC1CCCCCC1,-26.2%,?
COc1ccc(NS(=O)(=O)c2ccc(N3CCCCC3)c(NC(=O)C(C)NC(N)=O)c2)cc1 (stereo not given),i,-10.4%
CCC(=O)Nc1ccc(NC(=O)/C=C/c2ccc(Cl)cc2)cc1,-12.0%,-5.4%
CN(CC(=O)Nc1ccccc1Sc1ccccc1)C1CCCCC1,-15.4%,-21.1%
CC(C)(C)c1ccc(-n2nc(C#N)c(Cl)cc2=O)cc1,?,10µM*
CCOc1ccccc1NC(=O)CSc1nnc(-c2ccncc2)o1,-2.7%,4.0%
O=C(NCc1cccs1)C1CCC(CNS(=O)(=O)c2cccs2)CC1 (stereo not given),.,2.3%
COc1ccc(/C=C2\SC(=N)N(c3ccc(F)cc3)C2=O)cc1,-7.6%,-8.6%
CCS(=O)(=O)C(C)(CCl)C(=O)Nc1ccc(C(=O)OC)cc1 (stereo not given),-3.8%,-10.3%
CCOC(=O)c1csc(-c2ccc(OC)c(OC)c2)n1,i,-8.4%
Cc1ccc(C(=O)N(Cc2cc3ccc(F)cc3nc2N2CCC(O)CC2)CC2CCCO2)cc1 (stereo not given),-16.9%,-6.6%
COc1ccccc1OC(C)C(=O)N1CCc2ccccc21 (stereo not given),-22.6%,-17.2%
COc1ccccc1NC(=O)CC(NC1CCCCC1)C(=O)O (stereo not given),-10.2%,-0.7%
Cc1sc(NC(=O)c2ccco2)c(C(c2cccnc2)N2CCN(C)CC2)c1C (stereo not given),-31.6%,-24.7%
CC(=C/C(=O)O)/C=C/c1ccc([N+](=O)[O-])cc1,i,-4.6%
CCc1nc2ccc(C(=O)NCc3ccc4c(c3)OCO4)cn2c1N(CC)CCN(C)C,i,3.7%
CCSc1nnc(NC(NC(C)=O)(C(F)(F)F)C(F)(F)F)s1,i,0.9%
Cc1cccc(NC(=O)CSc2cc(C)c3ccccc3n2)c1,1.5%,16.4%
CCCCCCC1CC(C)(C(=O)CNc2nncs2)OC1=O (stereo not given),i,-11.3%
COC(=O)c1c(NC(=O)c2ccccc2C(=O)O)sc2c1CCCC2,-6.8%,-3.5%&-14.3%
CCN1C(=O)C2C(c3ccccc3F)NC(Cc3ccc(O)cc3)(C(=O)OC)C2C1=O (stereo not given),-15.8%,-18.9%
Cn1ncc(Br)c1NC(=O)Nc1ccc(Cl)cc1,-7.3%,-2.4%
CCc1ccc(NS(=O)(=O)c2ccc3[nH]cc(C(=O)NCCc4cccc(C)c4)c(=O)c3c2)cc1,-6.6%,-4.9%
OC(COc1ccccc1)Cn1c2ccccc2c2ccccc21 (stereo not given),?,-24.8%
Cc1ccc(C)c(N2CCN(C(=O)c3cnn(C(C)(C)C)c3C3CCN(C(=O)OC(C)(C)C)CC3)CC2)c1,-27.2%,-29.2%
Cc1ccc(C(O)c2ncc(-c3cccc(C(F)(F)F)c3)[nH]2)c(C)c1 (stereo not given),?,-21.0%
CCc1c(C)nc2c(OC)cccc2c1SCCC(=O)O,i,-6.7%
COc1ccc(C2=NS(=O)(=O)N(C)C(C(=O)Nc3cc(C)ccc3O)=C2)cc1OC,-1.6%&-16.7%,-12.6%&-18.9%
CCOC(=O)C1=C(CS(=O)(=O)c2ccc(Br)cc2)NC(=O)NC1c1ccccc1 (stereo not given),0.6%,1.7%

Bioassay records (PubChem BioAssay)
